Mtb H37Rv – Mycobacterium tuberculosis H37Rv growth inhibition, cell based, confirmatory dose response (AID 1949) | one-dose inhibition, % at 10 µg/mL; IC50 in µg/mL for titrated hits | most inactive calls were filed without a number and no value below 0 was filed | 1.6% of 100,000 active | M. tuberculosis H37Rv growth inhibition;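 active means confirmed in a dose series; inconclusive means about 50% or more but not retested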;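 further: bacteria grown 7 days with compound before Alamar blue readout; 0% = untreated bacteria and 100% = reference antibiotic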
* = called active by the depositor; i = inactive; ? = inconclusive. An excerpt, so the mix of outcomes need not match the whole.

SMILES,Mtb H37Rv
COc1ccc(OC)c(NC(=O)c2cc(-c3ccccc3)nc3ccccc23)c1,i
O=C(c1ccc(Cl)cc1)N1CCOCC1,i
COCCCn1c(-c2ccc(Cl)cc2)n[nH]c1=S,i
O=C(Cn1ncc2ccccc2c1=O)NNC(=S)NC1CC2CCC1C2 (stereo not drawn),i
CN(C(=O)C1CCCCC1C(=O)O)c1ccccc1 (stereo not drawn),i
CC(=O)Oc1ccccc1C(=O)NCCC1=CCCCC1,3.9%
COc1ccc(N2CCN(CC(O)COc3ccccc3)CC2)cc1 (stereo not drawn),2.0%
Cc1ccc(N2C(=O)c3cccc4c([N+](=O)[O-])ccc(c34)C2=O)c2cccnc12,1.2%
COc1ccc(-c2cc(=O)c3cc(O)ccc3o2)cc1OC,i
CC(=O)c1ccc(NC(=O)COc2cc(Cl)ccc2Cl)cc1,i

New compounds follow:
SMILES,Mtb H37Rv
O=C1CCCC2=C1C(c1ccccc1OC(F)F)n1ncnc1N2 (stereo not drawn),2.8%
S=C(Nc1ccc(Cl)cc1)N1CCOCC1,1.4%
CSc1ccc(/C=N/N2CCN(Cc3ccc(Cl)cc3)CC2)cc1,i
CC(Oc1cccc(Cl)c1)C(=O)NC1CC(C)(C)NC(C)(C)C1 (stereo not drawn),i
CC(C)c1ccc(C2C(C(=O)c3cccs3)=C(O)C(=O)N2c2nncs2)cc1 (stereo not drawn),i
CCS(=O)(=O)N1CCN(c2ccc([N+](=O)[O-])c(-n3nc(-c4ccccc4)c4ccccc4c3=O)c2)CC1,i
CCCNS(=O)(=O)c1ccc2nc(NC(=O)c3ccc(F)cc3)sc2c1,i
COc1ccc(CCNc2nc(-c3ccc(O)cc3)cs2)cc1OC,i
CCOC(=O)c1ccc(NC(=O)CSCc2c(Cl)cccc2Cl)cc1,i
Cc1ccc(NC(=S)NN2CCN(C)CC2)cc1,4.9%

The list continues.
SMILES,Mtb H37Rv
Fc1ccc(-n2c(-c3ccncc3)n[nH]c2=S)cc1,i
O=C(NCc1ccccc1)c1ccccc1C(=O)NCc1ccccc1,i
O=C(O)CNC(=O)c1cc2ccccc2cc1O,1.5%
CC(C)NC(=O)C1CCN(Cc2cccc(Cl)c2)CC1,i
CC(C)NS(=O)(=O)c1ccc(OCC(=O)Nc2cccc(Cl)c2)cc1,1.4%
CC(=O)Nc1ccc2c(c1)C1C=CCC1C(c1ccccc1F)N2 (stereo not drawn),i
CCCCOc1ccc(C(=O)Nc2ccc3c(c2)C(=O)NC3=O)cc1,1.9%
CCOC(=O)c1c(C)oc(N)c1C#N,i
CN(C(=O)c1cccc(NC(=O)c2ccccc2)c1)C1CCCCC1,i
Cc1cc(C)c(C#N)c(SCCS(=O)(=O)Cc2ccc(Cl)cc2)n1,i

(further entries)
SMILES,Mtb H37Rv
O=C(Nc1ccc(N2CCOCC2)cc1)Nc1cnsn1,0.8%
CCOC(=O)c1c(NC(=S)NC(=O)c2cccc(OCC)c2)sc2c1CCCC2,i
CCc1cc2c(=O)c(Oc3ccc(Cl)cc3)coc2cc1OC(C)=O,7.9%
COc1ccc(C(=O)Nc2cc(C(F)(F)F)ccc2N2CCOCC2)cc1Cl,i
Cc1cc(C)c(NC(=O)c2cnccn2)c(C)c1,i
CC1(C)CC(=O)C2=C(C1)N(CC1CCCO1)C(=O)C2(NC(=O)C1CCCCC1)C(F)(F)F (stereo not drawn),i
Oc1ccc(Br)cc1CN1CCC(N2CCN(c3ccccc3)CC2)CC1,6.7%
FC(F)(F)c1ccc(Oc2cccc(Br)c2)nc1,i
CCc1nnc(NS(=O)(=O)c2ccc(NC(=O)c3cc4cc(OC)ccc4oc3=O)cc2)s1,i
N#Cc1cc2c(nc1SCC(=O)Nc1ccc(F)cc1)CCC2,i

(more compounds)
SMILES,Mtb H37Rv
CCNC(=O)/C=C/c1cn(-c2ccccc2)nc1-c1ccccc1,6.4%
COc1cc(C)c(NC(=O)c2ccc([N+](=O)[O-])cc2)cc1C(C)C,i
Cc1cccc(-n2c(N)cc(=O)nc2SCC(=O)Nc2ccccc2C#N)c1,i
O=C(CN(Cc1ccccc1)S(=O)(=O)c1ccc(Br)cc1)NCc1ccco1,i
NC(=O)c1ccc(NC(=O)c2c(Cl)cccc2Cl)cc1,i
COC(=O)CNC1CC(=O)N(c2ccc(Cl)cc2)C1=O (stereo not drawn),i
CC(C)(C)c1ccc(OCC(=O)NCCN2CCCC2)cc1,4.7%
COC(=O)c1ccc(C(=O)OC)c(NC(=O)CN2C(=O)c3cccc4cccc2c34)c1,2.3%
Cc1cccc(C)c1NC(=O)c1c(NC(=O)c2ccccc2F)sc2c1CCCCC2,i
Cc1ccc(C)c(N(CC(=O)Nc2ccccc2)S(C)(=O)=O)c1,0.3%

(listing goes on)
SMILES,Mtb H37Rv
N#Cc1ccc(-c2cccs2)nc1SCC(=O)Nc1sc2c(c1C#N)CCCC2,?
Cc1ccc2oc(-c3cccc(NC(=S)NC(=O)C(C)(C)C)c3C)nc2c1,i
O=Cc1cccc(OCc2cccc(F)c2)c1,?
CC(C)C(=O)Nc1ccc(C(=O)Nc2nnc(C(C)(C)C)s2)cc1,?
CN(c1ccc(C(=O)NC2CCCC2)cc1)S(C)(=O)=O,i
Cc1cc(C=O)c(C)n1-c1ccc(OCc2ccccc2F)cc1,37.2%
O=C(CSc1nc2[nH]ncc2c(=O)n1-c1ccccc1)Nc1nsc(-c2ccccc2)n1,i
C#CC(CC)(CC)NC(=O)c1ccc(Cl)s1,i
N#Cc1ccc(NC(=O)CCN2C(=O)c3ccccc3C2=O)cc1,i
COc1ccc(CCNC(=S)N2CCN(S(C)(=O)=O)CC2)cc1OC,i

(next part)
SMILES,Mtb H37Rv
S=c1nc(-c2ccccc2)c2cc(Cl)ccc2[nH]1,i
CCCC1Cc2c(sc(N)c2C#N)CO1 (stereo not drawn),0.2%
COCC(=O)Nc1ccccc1[N+](=O)[O-],i
COc1cccc(N(CC(=O)Nc2cc(C)ccc2C)S(C)(=O)=O)c1,i
CCn1c(Cc2ccc(OC)cc2)nnc1SCC(=O)Nc1ccc(Br)c(Cl)c1,1.3%
COc1ccc(-c2nc(N)n(C(=O)Cc3ccccc3)n2)cc1,i
CCOC(=O)c1ccc(NC(=S)NCCN2CCc3ccccc3C2)cc1,31µg/mL*
COc1ccc(CCNC(=O)C2CCN(S(=O)(=O)c3cc(Cl)ccc3Cl)CC2)cc1,i
CN(c1ccc(C(=O)NCc2ccco2)cc1)S(=O)(=O)c1ccccc1,i
Cc1nnc(SCc2nc(N)nc(Nc3ccccc3)n2)s1,i

Next structures
SMILES,Mtb H37Rv
COc1cccc(CNc2cccc3cccnc23)c1O,2.8%
CN1CCN(C(=O)C(=O)Nc2ccc3c(c2)OCO3)CC1,i
O=C(NCCN1CCN(C(=O)c2ccc(Cl)c(Cl)c2)CC1)C(=O)Nc1ccc(Cl)cc1,i
O=C1CSc2nnc(C3COc4ccccc4O3)n2N1 (stereo not drawn),i
Cc1nn(C)c(C)c1CN(C)C(=S)Nc1cccc2ccccc12,i
CCc1ccc(N(CC(=O)Nc2ccccc2C(N)=O)S(C)(=O)=O)cc1,i
O=C(NCCN1CCN(C(=O)c2cccc(F)c2)CC1)C(=O)Nc1ccc(Br)cc1,13.0%
Cc1cccc(CNCC2CCCO2)c1 (stereo not drawn),i
COc1ccc(NC(=O)CNC(=O)c2cccs2)cc1,i
CCOc1cc(C(=O)Nc2cccc(Cl)c2N2CCOCC2)cc(OCC)c1OCC,1.9%

Carrying on:
SMILES,Mtb H37Rv
CC(C)Oc1cccc(C(=O)Nc2ccc(I)cc2C(F)(F)F)c1,i
COc1ccc(CSc2n[nH]c(-c3ccccc3OC(C)C)n2)cc1Br,47.1%
CC(C)Cc1nnc(NS(=O)(=O)c2ccc(F)cc2)s1,i
CN1C(C(=O)c2ccccc2)=C(OC(=O)C(C)(C)C)c2ccccc2S1(=O)=O,i
Cc1ccc(NC(=O)C2CCN(S(C)(=O)=O)CC2)cc1C,i
Cn1nnnc1NCc1cccc(Cl)c1Cl,i
CCOC(=O)c1ccc(NC(=O)CN2C(=O)c3cccc4cccc(c34)C2=O)cc1,i
COc1cc(S(=O)(=O)Nc2cccc(C)c2)ccc1NC(C)=O,i
CCN(CC)CCOCCOc1ccc(Br)cc1C,i
Cc1cc(C)c(C)c(OCC(=O)Nc2ccc(Br)cc2F)c1,i

Four of these compounds in a different format.
> Cn1nnnc1NCc1cccc(Cl)c1Cl
  Mtb H37Rv = i
> CCOC(=O)c1ccc(NC(=O)CN2C(=O)c3cccc4cccc(c34)C2=O)cc1
  Mtb H37Rv = i
> COc1cc(S(=O)(=O)Nc2cccc(C)c2)ccc1NC(C)=O
  Mtb H37Rv = i
> CCN(CC)CCOCCOc1ccc(Br)cc1C
  Mtb H37Rv = i

Carrying on:
SMILES,Mtb H37Rv
COc1ccccc1-c1noc(-c2ccncc2)n1,i
Cc1cc(C)n(CC(O)CN2c3ccccc3Sc3ccccc32)n1 (stereo not drawn),13.7%
O=C(c1cccc(F)c1)N1CCC(N2CCN(c3ccccc3F)CC2)CC1,5.0%
COCCCNC(=O)C(=O)NC1CC1,i
COc1ccc2cnn(-c3ccccc3)c(=O)c2c1OC,i
COc1ccc2c(c1)c(=O)oc1c(C)c(OCc3ccc(C(=O)O)o3)ccc12,i
Cc1cc(N=CC2=C(O)CCCC2=O)no1,1.2%
Cc1ccccc1-c1nc(-c2ccc(NC(=O)c3cccs3)cc2)no1,i
COc1cccc(CN2CCN(C(=S)Nc3ccc(Br)cc3Cl)CC2)c1,i
Cc1cc(C)n(C(=O)c2ccc(S(=O)(=O)N3CCCCC3)cc2)n1,1.9%

Going on with the list.
SMILES,Mtb H37Rv
COCCn1c(CCc2ccccc2)nnc1SCC(=O)Nc1ccc(Cl)c(C(F)(F)F)c1,i
CC(C)NC(=O)CN(c1cccc([N+](=O)[O-])c1)S(C)(=O)=O,i
C=C(C)Cn1c(CCCO)nc2ccccc21,i
CCc1cc(C(=O)OC)c(NC(=S)Nc2cccc(Cn3cc(Cl)cn3)c2)s1,i
NS(=O)(=O)c1cccc2ccccc12,i
Cc1cc(C)c(S(=O)(=O)Nc2ccc(O)c(C(=O)O)c2)c(C)c1,2.7%
C=Cc1ccc(COc2ccc3c(C)c(CC(=O)OC)c(=O)oc3c2)cc1,i
COc1ccc(NC(=O)C2CC2c2ccccc2)cc1 (stereo not drawn),i
C=CCNC(=O)c1ccccc1NC(=O)CN(c1ccccc1F)S(=O)(=O)c1ccc(C)cc1,i
COC(=O)c1cccc(NC(=O)CN(c2ccc(F)cc2)S(=O)(=O)c2ccccc2)c1C,i

The list continues:
SMILES,Mtb H37Rv
C=C1c2cc(CC)ccc2NC(=O)N1c1ccc(C)cc1,0.3%
Cc1ccc(S(=O)(=O)N(CC(=O)NCc2ccco2)c2cccc(C)c2C)cc1,1.9%
COc1ccccc1C(=O)Nc1nc2c(s1)CCc1ccccc1-2,i
Cc1ccc(-c2nn(-c3ccccc3)cc2CO)cc1,14.8%
Cc1cc(C)nc(N(C#N)Cc2ccccc2C)n1,i
O=C(NC1CCCCCC1)C1CCN(S(=O)(=O)c2ccc(F)cc2)CC1,i
Cc1[nH]c2ccc(Br)cc2c1CCN,i
CCOC(=O)c1nc(Nc2ccc(S(=O)(=O)Nc3ncccn3)cc2)c2ccccc2n1,i
COc1cc(OC)cc(C(=O)Nc2ccccc2C(=O)NCc2ccccc2)c1,i
Cc1cc(NC(=O)c2ccccc2)c(C(C)C)cc1O,i

(next part)
SMILES,Mtb H37Rv
Cc1cccc(C)c1OCCOCC(O)CN1CCN(c2ccccn2)CC1 (stereo not drawn),i
Cc1cc(NC(=O)c2cccc([N+](=O)[O-])c2)ccc1NC(=O)Cc1ccccc1,i
Cc1sc(NC(=O)CSc2ccccc2)c(C(N)=O)c1-c1ccccc1,i
Cc1ccc(NC(=O)CNS(=O)(=O)c2ccccc2)c(C(=O)c2ccccc2)c1,3.0%
CCCCC12CN(C(=O)c3ccccc3)CC(C)(CN(C(=O)c3ccccc3)C1)C2=O,i
CCOC(=O)c1c[nH]c2cc(I)ccc2c1=O,i
O=C(Nc1ccc(CN2CCOCC2)cc1)c1ccc([N+](=O)[O-])cc1,i
O=C(CCC1CCCCC1)NCc1ccc(F)cc1,i
O=[N+]([O-])c1c[n+]([O-])n(-c2cccc(C(F)(F)F)c2)n1,i
COc1ccccc1C/C(N)=N/OC(=O)c1cc(Cl)ccc1OC,6.3%

Additional entries
SMILES,Mtb H37Rv
CC1CCN(C(=O)c2ccc(I)cc2)CC1,3.2%
CS(=O)(=O)Nc1ccc(Cc2ccc(NS(C)(=O)=O)cc2)cc1,i
Cc1cc(C)cc(OCC(=O)NCCc2nc3ccccc3[nH]2)c1,0.5%
CC1CC(C)CN(c2nc3c(c(=O)n(C)c(=O)n3C)n2Cc2c(F)cccc2Cl)C1 (stereo not drawn),i
CC(C)(C)c1cc(Cl)ccc1OCCn1ccnc1,1.94µg/mL*
CSC1=C(C#N)C(c2ccc(C)o2)C(C(C)=O)=C(C)N1 (stereo not drawn),3.1%
O=C(Nc1ccc2c(c1)OCCO2)c1cnccn1,i
CC(=O)Nc1ccc(C(=O)CSc2ccc(Cl)cc2)cc1,i
CC(NC(=O)c1ccc(Cl)cc1Cl)c1ccc2c(c1)OCCO2 (stereo not drawn),i
Cc1ccccc1NC(=O)C(C)Oc1cccc(C)c1C (stereo not drawn),9.2%
